RN4220 kill – kills Staphylococcus aureus RN4220; actives 0.33% (n = 330,000); inhibition, % (test concentration not listed); S. aureus RN4220 growth, OD600, 16 h;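 active = z-score of -3 or lower and OD600 up to 0.18 on both plates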;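 also: plate controls were untreated cells for no effect and reference antibiotic for full effect; stock transfer was 100 nL into about 80 µL; one replicate is shown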
Sa ugtP lethal – compounds lethal to S. aureus RN4220 ugtP deletion mutant | AID 1259309 | OD600 growth, 16 h; some inactives read as strong as hits | growth inhibition, % (concentration not given with the values) | actives 0.54% (n = 330,000);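 active = z-score under -3 and OD600 up to 0.15 on both plates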;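 also: plate controls were untreated wells for no effect and antibiotic for full effect; wells of about 80 µL received 100 nL stock; the first replicate is given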
Mtb hypoxia inh – Mtb hypoxia fluorescent reporter inhibition; actives 0.1% (n = 300,000); M. tuberculosis hypoxia-regulated fluorescent reporter, fluorescence; fluorescence inhibition, % (no concentration beside the values);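 active = 35 to 45% if threefold the growth effect, above 45% if 1.5-fold the growth effect; inactive = the rest, general growth blockers included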;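 also: wells of about 50 µL received 100 nL stock; 0% = vehicle wells and 100% = reference inhibitor wells; whole bacteria with a GFP reporter of the hypoxia response; strong numbers were not always called active; many hits fall short of the cut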
Autofluor counter – counter-screen for toxin protease inhibitors: compound fluorescence; fluorescence intensity (concentration not given with the values); compound autofluorescence counterscreen, microsphere flow cytometry; stronger effect = higher value; actives 3.1% (n = 360,000);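 active = at least 3 SD above the mean of all compounds, about 16000 in these data; inconclusive = too few beads counted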;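 also: 100 nL of 1 mM stock went into each well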
PrP 5UTR inh – inhibition of PrP 5' UTR reporter expression; cell-based PrP 5' UTR mRNA reporter, plate reader; inhibition, % (concentration not given with the values); actives 0.35% (n = 340,000); AID 488862;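 active = every replicate at 50% or more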;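 also: 0 = median of the neutral control wells; tested in H4 reporter cells; numbers are from one replicate; inactives centre near -14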
BJeLR viability – BJeLR cell viability loss. BJeLR (HRASV12) viability, CellTiter-Glo ATP luminescence, 48 h; reference of the scale not given here. inhibition, % (test concentration not listed). actives 0.17% (n = 300,000);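 active = replicate mean above 50%; inconclusive = above 50% but judged a plate artefact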;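 also: 50 nL library stock added to about 25 µL; numbers are from one replicate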
Mtb hypoxia inh growth – further read-out of Mtb hypoxia inh, marked with its call; growth inhibition, %; measured here: M. tuberculosis growth (absorbance);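 0% = vehicle and 100% = reference antibiotic; read after six days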
Active calls of the source: *; ? = inconclusive; . = no result given; & = joins results of further samples.

SMILES	RN4220 kill	Sa ugtP lethal	Mtb hypoxia inh	Mtb hypoxia inh growth	Autofluor counter	PrP 5UTR inh	BJeLR viability
Cc1ccc(NC(=O)CCCNC(=O)c2ccc(Cl)cc2)nc1	-0.7	5.6	-6.8	-5.8	6007	-21.5	-12.6
COc1cccc(NC(=O)CSc2nnc(NC(=O)C3CC3)s2)c1	.	.	.	.	4026	-18.7	0.4
CC(C)NC(=O)c1cc2nc(-c3ccco3)cc(C(F)(F)F)n2n1	5.6	9.3	-1.2	-0.5	9149	-23.0	-7.8
Cc1c(-c2ccccc2)c(P(=O)(N2CCOCC2)N2CCOCC2)c2ccccn12	-2.9	-13.5	-0.9	-13.5	6942	-22.5	-2.6
Cc1ccccc1C(=O)NC1CCCCCCC1	8.9	5.9	.	.	3657	-66.8	2.9
CSCCC(NC(=O)/C(=C/c1ccc(F)cc1)NC(C)=O)C(=O)O (centres undefined)	.	.	.	.	4916	-16.2	-2.5
Cc1cccc(OCC(O)CN2CCN(CCN3C(=O)c4cccc5cccc(c45)C3=O)CC2)c1C (centres undefined)	3.4	2.0	-5.3	0.7	5001	-21.4	-9.6
CO/N=C/NC(=O)c1c(OC)ccnc1Oc1cccc(C(F)(F)F)c1	2.8	7.2	13.7	3.8	12317	-8.3	-0.8
NNC(=O)c1cc(C23CC4CC(CC(C4)C2)C3)nc2ccccc12	1.8	81.4	4.1	2.0	3627	-11.0	-0.3
CN(C)c1cc2c(cc1NS(=O)(=O)c1ccccc1)n(C)c(=O)n2C	-1.6	2.9	7.2	-3.8	3978	-16.2	-3.8
COc1ccc(CCNc2nc(C)nc3c2nnn3Cc2ccccc2)cc1OC	4.8	8.8	-1.9	3.0	3537	-0.5	-7.8
COc1ccc(/C=C2\Sc3ccc(C(=O)N4CCCC4)cc3N(C)C2=O)cc1OC	2.4	2.5	-9.1	-3.2	4373	-14.7	-4.1
O=C(/C=C/c1ccc([N+](=O)[O-])cc1)OCC(=O)N1c2ccccc2Sc2ccccc21	-8.3	-20.4	3.0	-5.2	7042	-5.2	4.9
CC(=O)N1CCN(Cc2nc3cc(NC(=O)c4ccc(F)cc4)ccc3n2C)CC1	9.9	-70.1	15.1	8.0	3928	-1.9	9.3
O=C(NC(=S)NCc1cccnc1)c1cc2ccccc2o1	7.5	4.0	-1.8	4.6	4705	-30.5	2.6

Profiles, quoted from the list. Order of values: RN4220 kill, Sa ugtP lethal, Mtb hypoxia inh, Mtb hypoxia inh growth, Autofluor counter, PrP 5UTR inh, BJeLR viability
CC(=O)N1CCN(Cc2nc3cc(NC(=O)c4ccc(F)cc4)ccc3n2C)CC1 is listed as 9.9, -70.1, 15.1, 8.0, 3928, -1.9, 9.3
NNC(=O)c1cc(C23CC4CC(CC(C4)C2)C3)nc2ccccc12 is listed as 1.8, 81.4, 4.1, 2.0, 3627, -11.0, -0.3

Continuation.
SMILES	RN4220 kill	Sa ugtP lethal	Mtb hypoxia inh	Mtb hypoxia inh growth	Autofluor counter	PrP 5UTR inh	BJeLR viability
COc1ccc(OCC(=O)Nc2ccc3c(c2)nc(CN2CCCC2)n3C)cc1	-1.8	-1.4	.	.	2882	-15.7	-0.2
O=C(Nc1ncc(Cc2ccccc2)s1)C1COc2ccccc2O1 (centres undefined)	-5.5	5.6	.	.	?	-127.0	-14.8
Cn1c(CNS(=O)(=O)c2ccc(F)cc2)n[nH]c1=S	8.9	8.2	3.7	9.3	3429	-19.8	-1.2
CSc1ccc(C(=O)C2CCCN(C(=O)CN3CCOC3=O)C2)cc1 (centres undefined)	-0.5	9.5	10.4	-1.9	5599	-11.0	-3.6
O=C(NNC(=O)c1cccc(-n2cccc2)c1)c1ccccc1	2.0	5.9	-6.0	5.8	3352	-39.7	.
COc1cc(NC(=O)CSc2nncn2C)c(C)cc1[N+](=O)[O-]	1.3	3.8	-14.3	-3.8	3230	-16.2	0.4
CCC(C)(C(=O)NC1CCCCC1)N(C)C(=O)c1ccc2c(c1)OCO2 (centres undefined)	-0.9	-1.9	-6.0	-1.5	7260	-19.7	-5.5
COc1ccccc1NC(=O)C(C)n1cnc2c(oc3nc4c(cc32)CCCC4)c1=O (centres undefined)	1.5	-1.5	5.7	4.4	4450	-22.8	-5.4
CC(C)CC(=O)Nc1cccc(C(C)O)c1 (centres undefined)	6.0	5.8	5.7	2.0	.	.	5.3
Cc1ccc(NC(=O)CN2C(=O)N/C(=C\c3cccn3-c3cccc(C(=O)O)c3)C2=O)cc1	6.2	6.2	-3.8	6.4	4263	-8.9	-4.7
Cc1ccc(/C=C/c2ccc(=O)n(Cc3ccccc3Cl)n2)cc1	-13.5	25.0	.	.	2360	-11.4	-1.0
Clc1ccc(Cn2cnc3ccccc32)cc1	-0.5	1.4	0.5	8.5	4310	-4.8	7.1
Cc1cc(C)c(C(=O)N2CCC3(CC2)OCCO3)c(C)c1	3.2	11.0	8.9	18.5	3972	-50.8	-3.6
COc1ccc(C(CNC(=O)c2cccc(S(=O)(=O)Nc3cccc(C)c3)c2)N2CCOCC2)cc1 (centres undefined)	.	.	.	.	?	-6.4	-11.5
Clc1ccc(-c2nc(/C=N/N3CCOCC3)c3ccccn23)cc1	.	.	.	.	4501	1.8	2.1
COc1ccc(C(=O)Nc2cc(C(C)=O)c(C)oc2=O)cc1	1.4	4.7	6.0	-1.3	4373	-32.3	-0.5
O=C1CCC(C(=O)O)(c2ccccc2)C1 (centres undefined)	1.9	2.2	.	.	.	.	-2.2
Cc1ccc(/C=N/NC(=O)c2cc3c(ccc4ccccc43)o2)cc1[N+](=O)[O-]	.	.	.	.	3153	-15.4	-6.3
COc1ccc(C(=O)N2CCC(C(=O)Nc3ccccc3C)CC2)cc1OC	1.0	6.0	12.4	8.9	4396	3.6	-3.1
COc1cccc(C(=O)Nc2c(F)cccc2F)c1	4.2	2.5	1.2	-1.0	4107	-7.0	-12.2
Cc1onc(-c2ccccc2)c1C(=O)OCCOc1cccc(Cl)c1	1.0	-7.5	.	.	?	-9.9	18.8
COc1ccccc1N(C(=O)CNS(=O)(=O)c1ccccc1)C(C(=O)NCc1ccco1)C(C)C (centres undefined)	-0.2	-1.9	.	.	2675	-12.2	3.0
CC1=C(C(N)=O)C(c2cccnc2)n2nc(SCc3ccccc3Cl)nc2N1 (centres undefined)	-0.5	-0.4	0.6	2.7	3180	12.9	3.3
Cc1cc(C)n2nc(C(=O)N/N=C/c3ccc(O)cc3)nc2n1	.	.	.	.	2205	-15.2	3.5
COc1ccc(CNC(=O)CN(C(=O)CCC(=O)Nc2nccs2)c2cccc(C)c2)cc1	-1.8	-4.3	13.1	3.6	3149	-2.3	-1.0
O=C(CCCCCN1C(=O)CCC1=O)Nc1ccc(Cl)c(C(F)(F)F)c1	7.9	3.7	3.2	0.9	10131	-5.9	22.9
O=C(O)COCC(=O)N1CCCN(c2nccc(C(F)(F)F)n2)CC1	-0.8	2.1	1.6	-1.5	3914	-31.2	3.5
COC(=O)c1ccc2nc(-c3cccc(N)c3)cn2c1	3.8	-4.6	-6.9	-0.2	4858	30.8	5.9
COC(=O)c1c(NC(C)=O)sc2c1CCCCC2	6.8	3.5	8.3	2.7	2422	-8.3	-8.4
Clc1ccc(-c2ccc(/C=N/Nc3nncc(-c4ccccc4)n3)o2)cc1	.	.	.	.	4515	-12.2	7.5
COc1ccc(C(O)P(=O)(OC(C)C)OC(C)C)c(OC)c1 (centres undefined)	4.4	1.0	-8.9	4.5	4751	4.7	-0.8
COCc1cc(C)nc(OCC(=O)NN=Cc2ccc(C)o2)c1C#N	-0.4	2.1	-6.3	-4.7	.	.	.
COc1cc(C(=O)Nc2c(C(=O)O)[nH]c3ccc(Br)cc23)cc(OC)c1OC	1.4	0.6	5.2	7.1	3700	-13.3	4.1
Cc1cc(OCCCn2ccnc2)cc(C)c1Cl	4.6	-10.7	13.5	9.2	9962	-22.8	-3.6
COc1ccc(NC(=O)Nc2ccc(CC(=O)O)cc2)cc1	.	.	.	.	2639	-11.0	7.5
Cn1ccnc1SCC(=O)Nc1ccc2ccccc2c1	3.1	-3.8	12.6	8.8	13065	-73.8	-1.7
O=C(CN1CCSCC1)N/N=C/c1cccc(Cl)c1	.	.	.	.	4597	0.4	5.2
COc1cccc(C(=O)Nc2ncc3c(n2)CC(c2ccc(OC)cc2OC)CC3=O)c1 (centres undefined)	3.4	2.2	3.7	2.2	24133*	-7.7	4.8
CCSc1ccccc1C(=O)Nc1ccc2c(c1)OCO2	.	.	.	.	4579	-17.0	-1.0
CCOC(=O)c1cnc2ccccc2c1Nc1cc(C(=O)O)ccc1C	6.8	-1.3	13.5	5.9	5005	-25.5	-3.6
Cc1cc(CNC(=S)Nc2ccc(Br)cc2Cl)nn1C	1.4	-1.2	0.9	10.3	3325	-5.8	7.2
COc1cc(C#N)c(NC(=S)N2CCOCC2)cc1OC	5.3	5.5	14.1	7.1	.	.	-6.4
COCCN1C(=O)C(CC(=O)Nc2ccc(C(C)=O)cc2)SC1=Nc1ccccc1 (centres undefined)	2.8&-2.1	2.8&4.2	7.1	9.4	3638&2776	-13.1&-8.7	5.0
CC(C(=O)O)N1c2cccc3cccc(c23)S1(=O)=O (centres undefined)	3.9	4.3	-6.2	-3.5	2809	-13.2	1.2
O=C(NCCOc1ccccc1F)C1CCC(=O)N(CCc2cccc(F)c2)C1 (centres undefined)	0.4	5.9	11.0	4.3	4697	-16.3	1.4
COCCCNC(=O)c1ccccc1-c1cc(C)no1	5.4	8.2	16.2	5.5	4898	-20.8	3.2
Cc1cc(C)n(-c2nc3c(c(=O)[nH]c(=O)n3C)n2Cc2cccc(Br)c2)n1	4.4	-1.4	.	.	4282	-10.6	2.8
OC(CNC1CCCC1)COc1ccc(Cl)cc1 (centres undefined)	-0.2	9.3	-3.6	10.9	3526	-9.4	10.0
Cc1ccc(S(=O)(=O)NN=Cc2cccc3nccnc23)cc1	3.5	0.0	1.5	6.9	.	.	.
COc1ccc(/C=N/NC(=O)c2sc3nc(C)cc(C)c3c2N)cc1	.	.	.	.	4883	-30.2	1.9
CCOc1ccccc1NC(=O)CCc1nnc2ccc(NCc3ccco3)nn12	0.5	4.7	4.0	-3.2	6026	-11.6	-5.0
C[n+]1ccc(C(=O)NCCC[N+](C)(C)C)cc1C=NO	6.2	4.6	5.3	-4.6	.	.	.
CC(c1ccccc1)n1nnc(COCc2ccccc2)c1C#CCOCc1ccccc1 (centres undefined)	5.2	3.8	12.5	7.2	.	.	.
Cc1c(Nc2nc3ccccc3n3cnnc23)cccc1[N+](=O)[O-]	0.8	-0.5	3.7	-1.5	3826	-29.0	-3.6

A draw from above in order of length of the SMILES, rising:
SMILES	RN4220 kill	Sa ugtP lethal	Mtb hypoxia inh	Mtb hypoxia inh growth	Autofluor counter	PrP 5UTR inh	BJeLR viability
CC(C)CC(=O)Nc1cccc(C(C)O)c1 (centres undefined)	6.0	5.8	5.7	2.0	.	.	5.3
COC(=O)c1c(NC(C)=O)sc2c1CCCCC2	6.8	3.5	8.3	2.7	2422	-8.3	-8.4
COc1ccc(NC(=O)Nc2ccc(CC(=O)O)cc2)cc1	.	.	.	.	2639	-11.0	7.5
Cn1c(CNS(=O)(=O)c2ccc(F)cc2)n[nH]c1=S	8.9	8.2	3.7	9.3	3429	-19.8	-1.2
C[n+]1ccc(C(=O)NCCC[N+](C)(C)C)cc1C=NO	6.2	4.6	5.3	-4.6	.	.	.
COc1ccc(C(=O)Nc2cc(C(C)=O)c(C)oc2=O)cc1	1.4	4.7	6.0	-1.3	4373	-32.3	-0.5
Cc1onc(-c2ccccc2)c1C(=O)OCCOc1cccc(Cl)c1	1.0	-7.5	.	.	?	-9.9	18.8
COc1ccc(OCC(=O)Nc2ccc3c(c2)nc(CN2CCCC2)n3C)cc1	-1.8	-1.4	.	.	2882	-15.7	-0.2
COc1ccccc1NC(=O)C(C)n1cnc2c(oc3nc4c(cc32)CCCC4)c1=O (centres undefined)	1.5	-1.5	5.7	4.4	4450	-22.8	-5.4
COc1cc(C(=O)Nc2c(C(=O)O)[nH]c3ccc(Br)cc23)cc(OC)c1OC	1.4	0.6	5.2	7.1	3700	-13.3	4.1
COc1ccc(C(CNC(=O)c2cccc(S(=O)(=O)Nc3cccc(C)c3)c2)N2CCOCC2)cc1 (centres undefined)	.	.	.	.	?	-6.4	-11.5

Compound activity: PubChem, several laboratories
